FadD28 binding – inhibitors of FadD28 bisubstrate probe binding, primary screen, biochemical, fluorescence polarization, single point | inhibition, % at 12.5 µM | 0.22% of 360,000 active | Mycobacterium tuberculosis FadD28 fatty-acid-AMP ligase; in the data active = inhibition above about 8.5%, passing the limit was not always enough
BoNT-F LC inh – BoNT/F light chain protease inhibitors, primary screen, biochemical, flow cytometry, MLPCN library. Multiplex microsphere protease cleavage assay. 0.22% of 360,000 active. inhibition, % at 10 µM. Botulinum neurotoxin type F light chain protease (Clostridium botulinum); in the data active = inhibition above about 35%, passing the limit was not always enough; note: plate controls were buffer without enzyme for full effect and enzyme alone for no effect
GDH-TPI counter – GDH-TPI coupling enzyme inhibitors, primary screen, artefact control for M. tuberculosis FBA inhibitor project, biochemical, absorbance, full deck; 1.2% of 360,000 active; inhibition, % at 4.8 µM; GDH-TPI coupled enzyme counterscreen, NADH absorbance; in the data active = inhibition above about 30%;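 note: 0% = DMSO wells and 100% = wells lacking the enzyme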
Mtb BioA inh – M. tuberculosis BioA enzyme inhibitors, primary screen, biochemical, plate reader, single point, HTS. inhibition, % at 9.99 µM. 7,8-diaminopelargonic acid synthase BioA (Mycobacterium tuberculosis). purified M. tuberculosis BioA enzyme. 0.096% of 360,000 active; in the data active = inhibition above about 40%
UGM FP inh – M. tuberculosis UGM enzyme inhibitors, primary screen, biochemical, fluorescence polarization, single point; UDP-galactopyranose mutase (Mycobacterium tuberculosis (strain ATCC 25618 / H37Rv)), …; purified UGM, fluorescence polarization probe displacement; inhibition, % at 10 µM; 0.06% of 320,000 active; AID 504406, 2011; in the data active = inhibition above about 10%, passing the limit was not always enough
Target sequence (P9WIQ1 whole entry, looked up): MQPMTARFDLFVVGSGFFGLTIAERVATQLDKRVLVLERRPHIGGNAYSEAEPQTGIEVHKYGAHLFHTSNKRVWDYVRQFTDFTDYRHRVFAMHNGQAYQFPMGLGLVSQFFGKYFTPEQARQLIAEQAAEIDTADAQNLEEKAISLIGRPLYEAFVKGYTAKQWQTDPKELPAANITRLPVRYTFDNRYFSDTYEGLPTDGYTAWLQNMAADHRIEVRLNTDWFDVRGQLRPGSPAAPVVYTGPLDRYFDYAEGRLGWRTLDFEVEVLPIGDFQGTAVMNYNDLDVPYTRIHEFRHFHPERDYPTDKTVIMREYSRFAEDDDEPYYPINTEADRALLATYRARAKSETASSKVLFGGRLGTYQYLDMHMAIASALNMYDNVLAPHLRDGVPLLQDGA
PrPC surface inh – inhibitors of human cell surface prion protein PrPC, primary screen, cell-based, TR-FRET; Major prion protein (Homo sapiens), P04156; TR-FRET read-out; inhibition, % at 13.8 µM; 0.43% of 370,000 active; AID 720596, 2013; in the data active = inhibition above about 24%; note: 0% = median of the test wells and 100% = reference compound wells
Rv3671c protease – Rv3671c serine protease inhibitors, primary screen, biochemical, fluorescence polarization, M. tuberculosis H37Rv | P9WHR9 | inhibition, % at 5.96 µM | 0.048% of 320,000 active; in the data active = inhibition above about 38%;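 note: extracellular domain of Rv3671c used as enzyme; 0% = enzyme with DMSO and 100% = no enzyme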
* marks the source's active call; other numbers are inactive results; . = no result given.

The first 2 compounds, to show the layout:
1	CC(=O)NC1(NC(C)=O)CCN(C)C(c2ccccc2)C1C (stereo unspecified)
2	O=C(c1nnsc1S(=O)c1ccc(Cl)cc1)N1CCOCC1 (stereo unspecified)
Assay by compound,1,2
FadD28 binding,1.6,-3.8
BoNT-F LC inh,-0.6,-11.0
GDH-TPI counter,4.8,8.5
Mtb BioA inh,.,-2.2
UGM FP inh,0.3,.
PrPC surface inh,4.5,9.7
Rv3671c protease,-4.0,.

The list itself (from the top)
1	CC(=O)NC1(NC(C)=O)CCN(C)C(c2ccccc2)C1C (stereo unspecified)
2	O=C(c1nnsc1S(=O)c1ccc(Cl)cc1)N1CCOCC1 (stereo unspecified)
3	CCN(c1ccccc1)S(=O)(=O)c1ccc(C(=O)NCC(c2cccs2)N(C)C)cc1 (stereo unspecified)
4	CCOC(=O)c1ccc(NC(=O)CCOc2ccc(OC)cc2)cc1
5	COc1ccc(C(=O)Nc2ccc(N3CCCC3)cc2)cc1OC
6	Cc1cc(C)n(CC(=O)N/N=C/c2cc(Br)cc([N+](=O)[O-])c2O)n1
Assay by compound,1,2,3,4,5,6
FadD28 binding,1.6,-3.8,-3.1,-0.2,-3.7,-0.6
BoNT-F LC inh,-0.6,-11.0,1.0,0.3,.,-10.7
GDH-TPI counter,4.8,8.5,-4.6,-0.3,6.8,3.9
Mtb BioA inh,.,-2.2,.,-0.4,0.2,.
UGM FP inh,0.3,.,-3.5,-2.4,-0.9,0.0
PrPC surface inh,4.5,9.7,6.0,2.6,-9.5,-0.5
Rv3671c protease,-4.0,.,7.9,1.1,.,16.4

An excerpt from above, reduced to GDH-TPI counter:
nr | canonical_smiles | GDH-TPI counter
1 | CC(=O)NC1(NC(C)=O)CCN(C)C(c2ccccc2)C1C (stereo unspecified) | 4.8
2 | O=C(c1nnsc1S(=O)c1ccc(Cl)cc1)N1CCOCC1 (stereo unspecified) | 8.5
3 | CCN(c1ccccc1)S(=O)(=O)c1ccc(C(=O)NCC(c2cccs2)N(C)C)cc1 (stereo unspecified) | -4.6

Entries of single compounds, quoted from the list. Values in the order: FadD28 binding	BoNT-F LC inh	GDH-TPI counter	Mtb BioA inh	UGM FP inh	PrPC surface inh	Rv3671c protease
`O=C(c1nnsc1S(=O)c1ccc(Cl)cc1)N1CCOCC1` (stereo unspecified) as listed: -3.8	-11.0	8.5	-2.2	.	9.7	.
`COc1ccc(C(=O)Nc2ccc(N3CCCC3)cc2)cc1OC` as listed: -3.7	.	6.8	0.2	-0.9	-9.5	.
`CCOC(=O)c1ccc(NC(=O)CCOc2ccc(OC)cc2)cc1` as listed: -0.2	0.3	-0.3	-0.4	-2.4	2.6	1.1

More entries follow.
7	Cc1cc(C)n(C(=O)C(C)n2nc([N+](=O)[O-])c(Br)c2C)n1 (stereo unspecified)
8	CCOC(=O)c1cnn(-c2ccccc2)c1NC(=O)C(F)(F)C(F)(F)C(F)(F)F
9	O=C(c1cccc([N+](=O)[O-])c1)C12CN3CN(CN(C3)C1)C2
10	CN(C(=S)SCc1ccccc1)C1CCS(=O)(=O)C1 (stereo unspecified)
11	CC(Sc1nc2ccccc2s1)C(=O)N1CCOCC1 (stereo unspecified)
12	Cn1c(CCN2CCCCC2)nc2cc(NS(=O)(=O)c3ccccc3)ccc21
13	CCCC(O)(CCN1CCCCC1)c1ccc(OCC)cc1 (stereo unspecified)
Assay by compound,7,8,9,10,11,12,13
FadD28 binding,-3.7,2.1,-1.0,-5.1,-2.1,-3.3,-1.5
BoNT-F LC inh,0.3,-26.4,-2.1,-3.3,-0.9,-17.6,-6.0
GDH-TPI counter,-6.2,6.8,-4.1,-3.2,6.8,0.6,-7.2
Mtb BioA inh,.,-3.9,1.4,.,-1.2,-1.2,0.4
UGM FP inh,1.5,1.9,-1.6,3.3,1.6,-1.8,.
PrPC surface inh,-10.9,6.3,-11.4,11.6,6.6,-9.2,-1.2
Rv3671c protease,-0.8,-6.3,0.5,1.2,-1.5,1.5,7.0

Screening data deposited in PubChem BioAssay by several laboratories.

Not all compounds are listed; the hit share may differ from the screen's.
